GIRK2 activ: activators of human GIRK2 potassium channels | G protein-activated inward rectifier potassium channel 2 (Homo sapiens), P48051 | HEK293-GIRK2 thallium flux, Thallos fluorescence | calls only for hits at 25 µM | 63,000 tested, 0.05% active;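 active means among the strongest 0.2% of first-round signals and kept after retests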;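 further: first round at about 10 µM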
Target sequence (P48051 whole entry, looked up): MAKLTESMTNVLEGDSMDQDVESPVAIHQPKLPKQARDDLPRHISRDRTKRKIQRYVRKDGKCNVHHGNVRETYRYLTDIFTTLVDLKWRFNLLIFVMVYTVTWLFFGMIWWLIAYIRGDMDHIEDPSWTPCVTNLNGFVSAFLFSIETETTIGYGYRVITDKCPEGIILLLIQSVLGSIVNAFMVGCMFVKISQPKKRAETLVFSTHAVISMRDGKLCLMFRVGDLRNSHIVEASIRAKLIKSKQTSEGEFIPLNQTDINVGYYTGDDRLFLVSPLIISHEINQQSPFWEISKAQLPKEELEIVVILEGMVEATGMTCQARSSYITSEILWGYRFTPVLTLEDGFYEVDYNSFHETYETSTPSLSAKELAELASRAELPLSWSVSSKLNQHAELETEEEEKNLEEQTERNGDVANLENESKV
Calls only; i = inactive. The list is partial; count on the stated rates, not on these rows.

SMILES | GIRK2 activ
CC(=O)N1CCc2c(sc(NC(=O)c3ccccc3Cl)c2-c2nc3ccccc3s2)C1 | i
COc1ccc(-c2ccc(N3CCC(C(=O)NCCc4csc(-c5ccccc5)n4)CC3)nn2)cc1 | i
O=S(=O)(Nc1cccc(-c2cnc3n2CCC3)c1)c1cccc(C(F)(F)F)c1 | i
O=C(CN1CCN(c2ccccc2F)C1=O)NCCCn1ccnc1 | i
CCOc1ccc(NC(=O)c2ccc(-c3ccc(F)cc3)o2)cc1 | i
Cc1cc(C)c(NC(=O)CN2C(=O)c3cccc4cccc(c34)C2=O)c(C)c1 | i
Cc1cn2c3c(=O)n(Cc4ccccc4F)c(=O)n(C)c3nc2n1CCCn1ccnc1 | i
COc1cccc(-n2ccc(=O)c(-c3nc(-c4ccc5c(c4)OCO5)no3)n2)c1 | i
Cc1cc(N2CCC(C)CC2)n2ncc(-c3ccccc3)c2n1 | i
C[C@@]12CCC[C@@](C)(C=O)C1CC[C@@]13C[C@@H](CCC12)[C@H](C(=O)O)C3 (some centres undefined) | i
O=C1CC(c2noc(-c3ccco3)n2)CN1c1ccccc1 (centres undefined) | i
Cc1c(Cl)cccc1NC(=O)CSc1nc2c(-c3ccccc3)c[nH]c2c(=O)n1C | i
O=C(Nc1ccccc1)OC1CCCC(NC(=O)c2ccc3c(c2)OCO3)C1 (centres undefined) | i
Cc1cc(NS(=O)(=O)c2ccc(NC(=O)c3cc4n(n3)CCCO4)cc2)nc(C)n1 | i
Cc1nc(-n2cccc2)sc1C(=O)N1CCCC(c2nnc(-c3ccccc3F)s2)C1 (centres undefined) | i
CC(=O)N[C@H]1[C@H](O[C@H]2CC[C@@]3(C)C(CC[C@]4(C)C3CC=C3C5CC(C)(C)CC[C@]5(C(=O)O)[C@H](O[C@@H]5O[C@H](CO)[C@@H](O)[C@H](O)[C@H]5O)C[C@]34C)C2(C)C)O[C@H](CO[C@@H]2O[C@H](C)[C@H](O)[C@H](O)[C@H]2O[C@@H]2OC[C@@H](O)[C@H](O)[C@H]2O)[C@@H](O)[C@@H]1O (some centres undefined) | i
Cc1ccccc1NC(=O)CN1CC(c2nc(-c3ccco3)no2)C1 | i
COc1ccccc1NC(=O)Cn1cc(S(=O)(=O)c2ccc(C)cc2)c(=O)c2cc(Cl)ccc21 | i
O=C(c1cccc(C(F)(F)F)c1)N1CCC(Oc2ncccc2Cl)CC1 | i
COCCCn1c(-c2cccc([N+](=O)[O-])c2)nc2c(c(=O)c3ccccc3n2C)c1=O | i
N#Cc1ccc(-c2nc(C3CC(=O)N(c4ccccc4)C3)no2)cc1 (centres undefined) | i
O=C(Nc1nc(-c2ccc3c(c2)OCO3)cs1)C1CCN(S(=O)(=O)c2ccc(F)cc2)CC1 | i
COc1cccc(NC(=O)c2nnn(-c3cccc(C)c3)c2C)c1 | i
CCN1CCN(CCOc2ccc3c(C)c(-c4ccc(Cl)cc4)c(=O)oc3c2)CC1 | i
Cn1c(=O)[nH]c(=O)c2c1nc(N1CCOCC1)n2CC(=O)c1ccccc1 | i
Cc1c(C)n2c3c(=O)[nH]c(=O)n(C)c3nc2n1CCN(C)C | i
CC(=O)N(O)CCCC1NC(=O)CNC(=O)CNC(=O)CNC(=O)C(CCCN(O)C(C)=O)NC(=O)C(CCCN(O)C(C)=O)NC1=O (centres undefined) | i
CC(C)c1ccccc1NC(=O)CCc1csc(NC(=O)c2ccc(=O)[nH]c2)n1 | i
CCOc1cc(/C=C(\C#N)c2nc(-c3cccc(OC)c3)cs2)ccc1OC(C)C | i
CCCc1nc2ccccc2n1Cc1ccccc1OC | i
Cc1ccccc1C(=O)NC1CC(=O)N(C)C1 (centres undefined) | i
COc1ccc(NC(=O)CNS(=O)(=O)c2ccc(C(C)(C)C)cc2)cc1 | i
O=c1[nH]c2nc(NCC3COCCO3)ncc2c(=O)n1C1CCCC1 (centres undefined) | i
COc1ccc(S(=O)(=O)NCC(c2ccc(F)cc2)N2CCN(C)CC2)cc1C (centres undefined) | i
CCc1ccc(S(=O)(=O)c2c(C(=O)N3CCSCC3)cnc3ccc(C)cc23)cc1 | i
CCOc1ccc(-c2cc3c(=O)n(CC(=O)Nc4ccc(C(=O)OC)cc4)ncn3n2)cc1 | i
Cc1nc2sccn2c(=O)c1NC(=O)NC1CCCCC1 | i
CCNC(=O)N1CCC(c2nnc(-c3ccccc3OC)s2)CC1 | i
Cc1ccc(NC(=O)N2CCN(c3ccc(-c4ccccc4C)nn3)CC2)cc1F | i
COc1ccc(C(=O)C(C)OC(=O)c2cc3cc([N+](=O)[O-])ccc3oc2=O)cc1 (centres undefined) | i
COc1cc(OC)cc(C(=O)N(CCCCN2C(=O)c3ccccc3C2=O)c2ccc(F)cc2F)c1 | i
O=C(CSC1CCCC1)N(Cc1ccsc1)Cc1ccco1 | i
COc1ccc(Cn2c(=O)[nH]c3cc(-c4nc(-c5ccc(OC)c(OC)c5)no4)ccc3c2=O)cc1 | i
COc1cccc2cc(C(=O)NCC3CCN(C(=O)c4cccnc4)CC3)c(=O)oc12 | i
COc1ccc(S(=O)(=O)Nc2cnc(N(C)C)nc2N(C)C)c(C)c1C | i
Cc1nc(SCc2ccccc2)[nH]c(=O)c1CC(=O)N1CCN(c2ncccn2)CC1 | i
O=C(CSc1nnc2scc(-c3ccc(Cl)cc3)n12)Nc1ccc2c(c1)OCCO2 | i
Nc1c(C(=O)c2cccc(-c3cccnc3)c2)cnn1-c1ccc(F)cc1 | i
Cc1ccnc(Nc2cc(N3CCN(C(=O)C4CCC(=O)N4)CC3)nc(C)n2)c1 (centres undefined) | i
Cc1cn2c3c(=O)[nH]c(=O)n(C)c3nc2n1-c1ccccc1 | i
Cc1cc(CNC(=O)C(=O)Nc2ccc(N3CCCCS3(=O)=O)cc2)c(C)o1 | i
CC(C)CCN1C(=O)C(C)(C)COc2ccc(NC(=O)NCc3cccs3)cc21 | i
C=CCn1c(=S)[nH]c2scc(-c3ccco3)c2c1=O | i
CNC(=O)CSc1cnn(CC(=O)Nc2ccc(Br)cc2)c(=O)c1Cl | i
CSc1ccc(NC(=O)COc2ccccc2)nn1 | i
Cc1nc(C)c(-c2ccc(=O)n(CCNC(=O)c3snnc3C)n2)s1 | i
CCSc1ccccc1C(=O)Nc1ccc(-n2nnn(CCOC)c2=O)cc1 | i
CC(C)c1nnc(C2CCN(CC(=O)Nc3cccnc3)CC2)o1 | i
Cc1cccc(OCC(=O)Nc2cc(-c3cccs3)nn2-c2nc(C)cc(=O)[nH]2)c1 | i
COc1cccc(-c2csc(-n3nc(C)cc3NC(=O)c3ccccc3[N+](=O)[O-])n2)c1 | i

Structures above that contain an aryl thioether with sulfur outside any ring:
SMILES | GIRK2 activ
Cc1c(Cl)cccc1NC(=O)CSc1nc2c(-c3ccccc3)c[nH]c2c(=O)n1C | i
Cc1nc(SCc2ccccc2)[nH]c(=O)c1CC(=O)N1CCN(c2ncccn2)CC1 | i
O=C(CSc1nnc2scc(-c3ccc(Cl)cc3)n12)Nc1ccc2c(c1)OCCO2 | i
CNC(=O)CSc1cnn(CC(=O)Nc2ccc(Br)cc2)c(=O)c1Cl | i
CSc1ccc(NC(=O)COc2ccccc2)nn1 | i
CCSc1ccccc1C(=O)Nc1ccc(-n2nnn(CCOC)c2=O)cc1 | i

(next part)
SMILES | GIRK2 activ
O=c1ccc(-n2cccn2)nn1CCNS(=O)(=O)c1ccc(OC(F)(F)F)cc1 | i
Cc1ccccc1OCC(=O)N(CCn1cccn1)c1nc2ccccc2s1 | i
O=C(NCC1CCN(C(=O)c2ccoc2)CC1)c1ccc2c(c1)OCO2 | i
Cc1nc(-c2ccc(N3CCN(C(=O)c4ccc(=O)oc4)CC3)nc2)no1 | i
Cn1cc(CC(=O)N2CCN(C(=O)C3CC3c3ccc(F)cc3)CC2)c2ccccc21 (centres undefined) | i
CCN1CCN(C(=O)N(Cc2ccc(Br)cc2)S(=O)(=O)c2ccc(C)cc2)CC1 | i
COc1ccc(C(O)=C2C(=O)C(=O)N(c3cc(C)on3)C2c2cccs2)cc1 (centres undefined) | i
CC(C)C(NC(=O)C12CC3CC(CC(C3)C1)C2)C(=O)Nc1ccccc1 (centres undefined) | i
COc1cccc2cc(C(=O)NCc3cc(-c4ccncc4)n(C)n3)oc12 | i
Cc1cc(NC(=O)C2CCN(C(=O)Nc3cccc(C(F)(F)F)c3)CC2)no1 | i
CCOc1ccc(NC(=O)CSc2nccn3nc(-c4ccc(OC)cc4)cc23)cc1 | i
COc1cc(OC)c(OC)cc1/C=C1\Oc2cc(OC(=O)c3cccs3)ccc2C1=O | i
CCc1nc2sc(C(c3cccc(F)c3)N3CCN(Cc4ccccc4)CC3)c(O)n2n1 (centres undefined) | i
CCOCCn1c(=O)c2c(nc3n(-c4ccc(CC)cc4)c(-c4ccccc4)cn23)n(C)c1=O | i
COc1ccc(Cl)cc1NC(=O)Nc1nc2c(s1)CN(S(=O)(=O)C1CC1)CC2 | i
CC(=O)c1cccc(NC(=O)c2cc(-c3ccc(Cl)cc3[N+](=O)[O-])oc2C)c1 | i
CN(c1ccc2c(c1)OCO2)S(=O)(=O)c1ccsc1-c1nc(-c2ccc3c(c2)OCO3)no1 | i
COCc1nc2ccccc2n1CC(=O)NCC1CCCO1 (centres undefined) | i
Cc1ccc2nc(-c3ccccc3NC(=O)CCCC(=O)O)[nH]c2c1 | i
CCOC(=O)CCC(=O)N1CCN(c2nnc(SCC(=O)NC(C)C)s2)CC1 | i
CCCCN(C)S(=O)(=O)c1ccc(C(=O)Nc2cc(C)ccc2C)cc1 | i
Cc1cc(C)n(-c2ccc(=O)n(CCNC(=O)Cc3noc4ccccc34)n2)n1 | i
Cc1ccc(-c2nc3c(c(=O)n2CC(=O)Nc2cc(F)ccc2C)CCN(Cc2ccccc2)C3)cc1 | i
CN(C)CCN1C(=O)c2oc3ccccc3c(=O)c2C1c1ccc([N+](=O)[O-])cc1 (centres undefined) | i
Cc1ccc(NCc2cc3cc4c(cc3n(CC(=O)Nc3c(C)cccc3C)c2=O)OCCO4)cc1 | i
O=C(NCc1ccc(F)cc1)NCC1CCN(C(=O)c2ccncc2)CC1 | i
Cc1c(C)n(Cc2ccco2)c2ncnc(NCCC(=O)O)c12 | i
O=C(Nc1nc(-c2ccncc2)cs1)C1CCCN(S(=O)(=O)c2cccs2)C1 (centres undefined) | i
C#CCCNC(=O)COCC | i
COC(=O)c1ccccc1NC(=O)c1cc2c(=O)n(C)c(=O)n(C)c2n1Cc1ccccc1 | i

No new results follow: 4 of the compounds above.
SMILES | GIRK2 activ
CN(C)CCN1C(=O)c2oc3ccccc3c(=O)c2C1c1ccc([N+](=O)[O-])cc1 (centres undefined) | i
Cc1ccc(NCc2cc3cc4c(cc3n(CC(=O)Nc3c(C)cccc3C)c2=O)OCCO4)cc1 | i
O=C(NCc1ccc(F)cc1)NCC1CCN(C(=O)c2ccncc2)CC1 | i
Cc1c(C)n(Cc2ccco2)c2ncnc(NCCC(=O)O)c12 | i

Carrying on.
SMILES | GIRK2 activ
COc1cccc(CSc2nc3c(sc(=S)n3-c3ccccc3)c(=O)[nH]2)c1 | i
Cc1ccnc(NS(=O)(=O)c2ccc(NC(=O)C34CC5CCC(CC(C5)C3)C4)cc2)n1 | i
C=C1C[C@@]23CCC4[C@@](C)(CCC[C@@]4(C)C(=O)OC)C2CC[C@@H]1C3 (some centres undefined) | i
CCOc1ccc(NC(=O)c2ccc(N)cc2)cc1 | i
CCOc1ccc(-n2c(=S)sc3c(=O)n(C)c(SCC(=O)NC4CCCCC4)nc32)cc1 | i
Cc1cccc(Nc2nc(CC(=O)NCc3nc(C)no3)cs2)n1 | i
CCS(=O)(=O)N1CCCc2ccc(NS(=O)(=O)c3ccc(OC)c(OC)c3)cc21 | i
COc1ccc(NC(=O)c2cccn(C)c2=O)cc1N1CCCC1=O | i
COc1ccc(N(C)c2nnc(-c3ccc(NC(=O)c4cccs4)cc3)s2)cc1 | i
COc1ccc(Br)cc1S(=O)(=O)N1CCN(c2c(C)cccc2C)CC1 | i
COc1ccc(C(=O)N(Cc2ccsc2)Cc2ccco2)c(OC)c1OC | i
CCNC(=O)OC(C)(C)C | i
COc1ccccc1-c1c(C#N)c(N)nc2c1CN(Cc1ccccc1)CC2 | i
COC1(CNC(=O)C2COc3ccccc3O2)CCSC1 (centres undefined) | i
O=C(NCC#CCN1CCCCCC1)c1ccc(F)c(F)c1 | i
COc1ccc(C2NCCc3cc(O)c(O)cc32)c(OC)c1OC (centres undefined) | i
CCc1cccc(OCC(O)Cn2c(NCCN(C)C)nc3c2c(=O)[nH]c(=O)n3C)c1 (centres undefined) | i
Cc1ccc2oc(=O)c(-c3nc4ccncc4[nH]3)cc2c1 | i
COc1ccc(NC(=O)c2ccc(S(=O)(=O)N3CCCCCC3)cc2)c(OC)c1 | i
O=C1CCSCC(C(=O)Nc2ccc(Cl)c(Cl)c2)N1 (centres undefined) | i
Cc1cc(I)ccc1S(=O)(=O)N1CCN(C)CC1 | i
COc1ccc(CNC(=O)Nc2nnc(Cc3ccc(C)cc3C)o2)cc1 | i
Oc1c(Cl)cc(Cl)c(Cl)c1Cc1c(O)c(Cl)cc(Cl)c1Cl | i
CSc1ccc(/C=C2\C=C(CC(=O)NCc3ccc(C(F)(F)F)cc3)c3cc(F)ccc32)cc1 | i
NS(=O)(=O)c1ccc(Cl)cc1[N+](=O)[O-] | i
Cc1ccccc1NC(=O)Cn1cc(-c2nc(-c3cnccn3)no2)ccc1=O | i
CS(=O)(=O)N1CCC(C(=O)NCCC(O)c2cc3ccccc3o2)CC1 (centres undefined) | i
CCCCC[C@H](O)C/C=C1/C(=O)C[C@H](O)[C@@H]1C/C=C\CCCC(=O)O | i
O=C(Cn1ccn2nc(-c3ccc(Cl)cc3)cc2c1=O)NCc1ccccc1 | i
